TsaE inh: qHTS Assay for Inhibitors of YjeE | purified YjeE, fluorescence polarisation of a bound ADP probe | Potency, µM | actives 0.05% (n = 71,000) | AID 605, 2007; active = well fitted falling curve; inconclusive = weaker or top-dose-only fall, or a rising curve; inactive = flat or poorly fitted curve;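 note: top concentration of the series not given in the record; excess ADP was the control for the full effect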
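Fluorescence polarization of a BODIPY Texas Red–ADP probe (2 uM) bound to purified YjeE (10 uM) was read after 15 min room-temperature incubation with compounds. Loss of polarization marks inhibitors; ADP serves as titrated control.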
Bst PK mod: Pyruvate Kinase; partly purified Bacillus stearothermophilus pyruvate kinase, luminescence ATP production; ribose 5-phosphate activator present at AC10; Potency, µM; actives 1.2% (n = 51,000); in the data active means potency below about 11 µM; inconclusive means mostly about 12 µM to 25 µM; inactive means weaker than that;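 the screen sought inhibitors and activators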;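 note: potency is the fitted concentration of half-maximal effect; scaled between full activation by ribose 5 phosphate and full inhibition by luteolin; about four in five hits inhibit and the cells do not say which; series up to 57 µM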
Active calls of the source: *; i = inactive; u = inconclusive; x = not tested or not shown.

A first look:
TsaE inh	Bst PK mod	SMILES
i	>57	CC1=CC(C)(C)N2C(=O)C3(N=C(N)NC(Nc4ccccc4)=N3)c3cc(C)cc1c32 (centres undefined)
i	>57	CCN(CC)S(=O)(=O)c1ccc(NC(=O)CSc2nnc(-c3ccc(F)cc3)o2)cc1
i	>57	COCC(=O)N(Cc1cc2cc(OC)ccc2[nH]c1=O)c1ccccc1OC
i	u	NC(=O)c1sc2nc3c(c(-c4ccco4)c2c1N)CCC3
i	>57	C=CCn1c(=O)c(C(=O)Nc2ccccc2C(=O)OCC)c(O)c2ccccc21

Results, previewed entries included:
TsaE inh	Bst PK mod	SMILES
i	>57	CC1=CC(C)(C)N2C(=O)C3(N=C(N)NC(Nc4ccccc4)=N3)c3cc(C)cc1c32 (centres undefined)
i	>57	CCN(CC)S(=O)(=O)c1ccc(NC(=O)CSc2nnc(-c3ccc(F)cc3)o2)cc1
i	>57	COCC(=O)N(Cc1cc2cc(OC)ccc2[nH]c1=O)c1ccccc1OC
i	u	NC(=O)c1sc2nc3c(c(-c4ccco4)c2c1N)CCC3
i	>57	C=CCn1c(=O)c(C(=O)Nc2ccccc2C(=O)OCC)c(O)c2ccccc21
i	>57	COc1ccc(-c2nnc(SCC(=O)N(Cc3ccccc3)C(C)(C)C)o2)cc1OC
i	>57	CN(C)C(=O)CSc1nnc(CCN)o1
i	x	COc1cc(CNc2ccc(C)c(C)c2)cc(OC)c1OC
i	>57	Nc1nncn1C(=O)c1ccccc1Cl
i	x	Cc1noc(C)c1-c1cc(NCc2cccnc2)ncn1
i	x	O=[N+]([O-])c1ccc(NCCO)c(OCCO)c1
i	>57	Cc1cccc(OCC(=O)Nc2ccc(N3CCN(S(C)(=O)=O)CC3)cc2)c1
i	x	CN(CCc1ccc(Cl)c(Cl)c1)CCN1CCCC1
i	x	N#CC[N+]1(Cc2ccccn2)CCCC1
i	>57	CCN(CC)CC(=O)c1c[nH]c2ccccc12
i	>57	O=C(CSc1nnc2c(n1)[nH]c1ccc(F)cc12)OCc1ccccc1
i	x	O=C1c2ccccc2C(=O)c2c(Nc3ccc4c5c(cccc35)C(=O)c3ccccc3-4)cccc21
i	x	CCCCc1nnc(SCc2ccc(OCC)cc2)n1N
i	x	CCCc1nc(SC2CCCC2)c2c(=O)n(C)c(=O)n(C)c2n1
i	x	COc1ccc(C(=O)NCc2nc3ccccc3[nH]2)cc1OC
i	x	O=C(Cn1cc2c(n1)CCCC2)N1CCc2ccccc21
i	x	O=C1c2oc3ccccc3c(=O)c2C(c2cccc(O)c2)N1CCCN1CCOCC1 (centres undefined)
i	>57	Cn1c(=O)c2c(nc(Sc3nc4ccccc4n3CC(=O)N3CCCCC3)n2C)n(C)c1=O
i	x	CCCCc1ccc(NC(=O)OC)cc1
i	x	c1cncc(-c2nc3ccccn3c2Nc2ccc3c(c2)OCCO3)c1

Rewritten as labelled records: 4 of the compounds above
CCCCc1nnc(SCc2ccc(OCC)cc2)n1N
  TsaE inh: i
  Bst PK mod: x
COc1cc(CNc2ccc(C)c(C)c2)cc(OC)c1OC
  TsaE inh: i
  Bst PK mod: x
O=C1c2oc3ccccc3c(=O)c2C(c2cccc(O)c2)N1CCCN1CCOCC1 (centres undefined)
  TsaE inh: i
  Bst PK mod: x
O=C1c2ccccc2C(=O)c2c(Nc3ccc4c5c(cccc35)C(=O)c3ccccc3-4)cccc21
  TsaE inh: i
  Bst PK mod: x

Whole records, looked up by structure:
CCN(CC)S(=O)(=O)c1ccc(NC(=O)CSc2nnc(-c3ccc(F)cc3)o2)cc1 is listed as TsaE inh = i; Bst PK mod = >57
C=CCn1c(=O)c(C(=O)Nc2ccccc2C(=O)OCC)c(O)c2ccccc21 is listed as TsaE inh = i; Bst PK mod = >57

Other records follow.
TsaE inh	Bst PK mod	SMILES
i	x	COc1ccc(N2CCN(CCCNS(=O)(=O)c3ccc4c(c3)oc(=O)n4C)CC2)cc1
i	>11	CCOc1ccc(C(N)=O)cc1OC
i	>57	Nc1nc(CN2CCN(c3ccccn3)CC2)nc(Nc2ccc(F)cc2)n1
i	>57	CC1CCCCN1C(=O)CSc1ccc(-c2ccc(F)cc2)nn1 (centres undefined)
i	>57	N#CCSc1nc2scc(-c3cccs3)c2c(=O)n1CCc1ccccc1
i	i	Cc1ccc(CC2SC(=O)NC2=O)cc1Cl (centres undefined)
i	>57	CCOc1ccc(-c2nnc3sc(COc4ccc(Cl)cc4)nn23)cc1
i	>57	CCOCCCNC(=O)C(NC(=O)c1cnccn1)c1ccc(OC)cc1 (centres undefined)
x	>26	Cc1cn2c(-c3ccncc3)nnc2s1
i	>57	O=C(CCc1nc(-c2ccccc2F)no1)NC1CCN(Cc2ccccc2)CC1
i	>57	CCOc1cccc(NC(=O)C(Cc2cccs2)c2nn[nH]n2)c1 (centres undefined)
i	>57	COc1[nH]c(/N=C/c2ccccc2)c(C#N)c1C#N
i	x	COc1ccc(CNC(=O)C2CCCN(S(=O)(=O)c3c(C)nn(C)c3C)C2)cc1 (centres undefined)
i	x	CC(=O)NC(Cc1cnc[nH]1)C(=O)O (centres undefined)
i	x	O=C(O)CN(CCOCCOCCN(CC(=O)O)CC(=O)O)CC(=O)O
i	>57	COc1ccccc1N1CCN(C(=O)CCNS(=O)(=O)c2ccc(Br)s2)CC1
i	>57	COC(=O)C(C)Oc1ccc(=O)[nH]n1 (centres undefined)
i	x	CC(C)C[C@@H](CC(=O)N[C@@H](CCC(=O)O)CC(=O)O)NC(=O)[C@@H]1CNCC[C@H]1NC(=O)C[C@H](CCCN)NC(=O)C[C@H](CO)NC(=O)[C@@H]1CNCC[C@H]1N
i	>57	C/C(=C\c1ccco1)C1C(C#N)=C(N)OC2=C1C(=O)CC(C)(C)C2 (centres undefined)
i	>57	CCCOc1ccc(C2(C(=O)O)CCCC2)cc1
i	>57	O=C(CCN1C(=O)C2C3C=CC(C3)C2C1=O)N1CCN(c2ccc(F)cc2)CC1 (centres undefined)
i	x	CCS(=O)(=O)NCCc1csc(-c2cccnc2)n1
i	>57	CCOC(=O)CSc1nc2ccccc2c(=O)n1CC1CCCO1 (centres undefined)
x	>26	CC(C)CN1C(=O)NC(NC(=O)c2cccnc2)(C(F)(F)F)C1=O (centres undefined)
i	x	CCOC(=O)C1CCN(Cc2ccc(O)c(OC)c2)CC1

The list continues:
TsaE inh	Bst PK mod	SMILES
i	>57	CCN(CC)S(=O)(=O)c1ccc(F)cc1
i	x	NC[C@@H]1O[C@@H](O[C@H]2[C@@H](O)[C@H](O[C@@H]3[C@H](O)[C@H](N)C[C@H](N)[C@H]3O[C@@H]3O[C@@H](CO)[C@H](O)[C@H](O)[C@@H]3N)O[C@H]2CO)[C@H](N)[C@H](O)[C@@H]1O
x	i	CNc1oc(-c2cccs2)nc1C#N
i	>57	CC(C)CCn1nc(C(=O)OC(C)C(=O)NC(N)=O)c2ccccc2c1=O (centres undefined)
i	>57	Cc1ccc(-c2csc3n[nH]c(=S)n23)cc1
i	>57	CN1CC(=O)N(CC(=O)Nc2ccc(N(C)C)cc2)c2ccccc2C1=O
i	>57	O=C(CCCCn1c(=O)c2ccccc2n(CC(=O)NC2CCCC2)c1=O)NCc1ccco1
i	>57	CCOC(=O)C1CCCN(C(=O)c2cc3c(-c4cccc(OC)c4)nn(C)c3s2)C1 (centres undefined)
i	x	COc1ccc(S(=O)(=O)N(CC(=O)N2CCN(c3ccccc3OC)CC2)c2ccccc2)cc1
i	x	Brc1cccc(-c2nc(-c3ccncc3)no2)c1
i	>57	CSc1ccccc1NC(=O)Nc1ccccc1
i	>57	COc1ccc(-c2nnc(SC(C)C(=O)Nc3nccs3)n2-c2ccccc2)cc1OC (centres undefined)
i	x	COc1cccc(NC(=O)C(C)Oc2ccccc2)c1 (centres undefined)
i	>57	Cc1c(C(=O)N(C)Cc2ccccc2)oc2ccc(S(=O)(=O)N3CCCC3)cc12
i	>57	Cc1ccc(CN2C3=NCCCN3c3ccccc32)cc1
i	>57	Cc1ccc(-c2nnc3c4ccccc4c(C)nn23)cc1S(=O)(=O)N1CCN(C)CC1
x	>26	O=C(O)c1ccc(COc2c(F)c(F)c(F)c(F)c2F)o1
i	>57	COc1cccc(NS(=O)(=O)c2cc(C)ccc2OC)c1
i	>57	CC[C@@H](C)[C@H](NC(=O)OC(C)(C)C)c1nnc(S(=O)(=O)Cc2cc(C)ccc2C)o1
i	x	CCCNC(=O)c1ccc(SC)cc1OC
x	>26	COc1ccc[nH]c1=O
i	>57	CC(C)c1ccc(S(=O)(=O)N2CCN(CCC(=O)Nc3ccc(N(C)C)cc3)CC2)cc1
i	>57	Cc1ccc(NCc2nnc(SCC(=O)c3ccc4c(c3)OCCO4)o2)c(C)c1
i	x	COc1cc2c(cc1OC)CN(C(=O)C(C)(C)C)CC2
i	x	Cc1ccccc1-c1ccc2ncnc(NC3CC3)c2c1

Going on with the list.
TsaE inh	Bst PK mod	SMILES
i	>57	CCOC(=O)C(Cc1c[nH]c2ccccc12)NC(=O)CNC(C)=O (centres undefined)
i	>57	O=c1[nH]c2ccccc2n1CCCSCCCn1c(=O)[nH]c2ccccc21
i	>57	O=C(C1CCCN(S(=O)(=O)c2cccc3nsnc23)C1)N1CCN(c2ccccn2)CC1 (centres undefined)
i	>57	COCc1cc(C)nc2sc(C(=O)OC)c(N)c12
i	>57	CCOC(=O)N1C(=O)c2cc(OC)ccc2S1(=O)=O
i	>57	Nc1ncnc2nc(N3CCN(C(=O)c4ccccc4)CC3)[nH]c12
i	x	CCc1ccc(C2CC(c3ccccc3)Nc3nc(N)nn32)cc1 (centres undefined)
i	x	CCCC/C=C/C(NC(=O)C(C)(C)C)c1ccccc1 (centres undefined)
i	>26	CCc1nc(N)nc(N)c1-c1ccc(Cl)cc1
i	>57	COCCn1nnnc1C1(N(Cc2cc3cc(C)ccc3[nH]c2=O)CC2CCCO2)CCN(C)CC1 (centres undefined)
i	>57	Cc1cc(C)n(CCO)c(=O)n1
i	>57	CCOC(=O)c1ccccc1NC1OC(=O)c2ccccc21 (centres undefined)
i	x	CC(C)CC(=O)Nc1ccc(OCC(=O)O)cc1
i	>57	CCOC(=O)c1[nH]c2ccc(OC)cc2c1NC(=O)OC
i	x	CCOC(=O)C1CCCN(C(=O)c2ccc(CNc3c(N4CCC(C)CC4)c(=O)c3=O)cc2)C1 (centres undefined)
i	x	COC(=O)c1sc(NC(=O)COc2ccccc2OC)nc1C
i	>57	CCn1c(-c2ccc(F)cc2)n[nH]c1=S
i	x	O=c1c(CCc2ccccc2)nc2cnc(N3CCOCC3)nc2n1C[C@H]1CCCO1
i	>57	CCc1ccc(Nc2nc(N)nc(CSc3nnnn3-c3ccccc3)n2)cc1
i	x	CN(C)c1ncc2nc(-c3cccc(C#N)c3)c(=O)n(C[C@H]3CCCO3)c2n1
i	>57	O=C(Cn1[nH]c(=O)c2ccccc2c1=O)NC1CCN(Cc2ccccc2)CC1
i	x	CC(C)CN1CCCC2(CCN(C(=O)c3cc(C(F)(F)F)cc(C(F)(F)F)c3)CC2)C1
i	x	CC1CN(c2nnnn2-c2ccccc2)CC(C)O1 (centres undefined)
i	>57	CCOCCCNC(=O)C(NC(=O)c1ccc2c(c1)OCO2)c1ccc(OC)cc1 (centres undefined)
i	>11	Nc1nc(Cn2nnc(-c3ccccc3Cl)n2)nc(N2CCOCC2)n1

(next part)
TsaE inh	Bst PK mod	SMILES
i	x	CCCC(=O)Nc1nc2ccc(OCC)cc2s1
i	>57	COC(=O)c1[nH]c2ccccc2c1NC(=O)Oc1ccccc1
x	>26	CC(C)c1nc(N2CCOCC2)c(C#N)c2c1COC(C)(C)C2
i	>57	CC(=O)Nc1ccc(Cl)cc1C(=O)O
i	>11	O=C(O)[C@@H]1CSC2(CCSC2)N1 (some centres undefined)
i	x	COc1ccccc1NC(=O)c1c(NC(=O)c2ccco2)sc2c1CCC2
i	>57	CCN(CCCNC(=O)CCNC(=O)Cn1cnc2ccccc2c1=O)c1cccc(C)c1
x	>26	COc1ccccc1Nc1ncc(-c2cccs2)s1
i	x	Cc1nn(-c2ccc(F)cc2)c2sc(C(=O)OCC(=O)N3CCC(C)CC3)cc12
i	>57	CC(=O)N1c2ccccc2NC2=C(C(=O)CCC2)C1c1cccnc1 (centres undefined)
i	>57	C/C=C/c1ccc(OC)c(OC(C)=O)c1
i	>57	CC(OC(=O)CNC(=O)C12CC3CC(CC(C3)C1)C2)C(=O)Nc1ccc(N2CCOCC2)cc1 (centres undefined)
i	x	O=C(NC(Nc1ncccn1)C(=O)c1ccccc1)c1ccccc1 (centres undefined)
i	>26	Cc1ccc(C)c(OCCCC(C)(C)C(=O)O)c1
i	x	N/N=C1/CC(=O)NC(=O)N1
i	>57	Cc1[nH]n(CCC#N)c(=O)c1CC(=O)N1CCN(c2ccccc2)CC1
i	>57	CCC(=O)Nc1ccc(C(=O)CSc2nnc(-c3cccnc3)o2)cc1
i	x	O=C(NCCc1csc(-c2cccnc2)n1)c1cccs1
i	>57	CCOC(=O)c1nn(-c2ccccc2)c(=O)c(C#N)c1C
i	>57	COc1ccc(Cn2nnc(C(=O)Nc3ccc(F)cc3)c2N)cc1
i	x	Cc1ccc(S(=O)(=O)N[C@@H](Cc2ccccc2)C(=O)CCl)cc1
i	x	CCOC(=O)c1ccc(N2C(=O)CC(N3CCC(C(=O)OCC)CC3)C2=O)cc1 (centres undefined)
i	>57	CCOc1ccc(NC(=O)NCCN2C(C)CCCC2C)cc1 (centres undefined)
i	x	Clc1cnccn1
i	>57	Cc1ccc(-n2ncc(C#N)c2/N=C/N2CCCCCC2)cc1
i	>57	Cc1noc(C)c1COc1ccc(C(=O)OC(C)C(=O)Nc2ccc(N3CCOCC3)cc2)cc1 (centres undefined)
i	>57	N#Cc1ccccc1NC(=O)c1ccccc1OCC(=O)NCc1ccco1

Only part of the results is shown; rates above refer to the full screens.
